Bioassay records from PubChem BioAssay.
Hedgehog inh: Hedgehog pathway signaling inhibitors, primary screen, luminescence, Shh-LIGHT2 cells, Gli-luciferase | AID 2313, 2010 | inhibition, % (test concentration not listed) | actives 2.1% (n = 22,000) | Shh-LIGHT2 Gli-luciferase reporter, 30 h;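 active means replicate mean of 65% or more; inconclusive means mean lower but half the replicates past it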;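 further: pathway switched on by Shh-conditioned medium diluted 1 in 25 in low serum; 100 nL library stock added to about 40 µL; 0% = median of neutral wells and 100% = positive control level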
YB-1 expr inh: inhibitors of YB-1 gene expression, primary screen, cell-based, fluorescence. U2OS, qRT-PCR YB-1 vs CDIP delta delta Cp, 16 h; active compounds read high; zero = DMSO, each unit about twofold. actives 0.37% (n = 30,000). delta delta Cp (YB-1 minus CDIP) (concentration not given with the values);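 active means delta delta Cp rounded down to an integer at or above 3, about 3 SD of DMSO wells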;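 further: higher means less YB-1 transcript or more CDIP transcript relative to DMSO; stock transfer was 100 nL into about 100 µL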
PD-1 reverse act: activators reversing PD-1 mediated T-cell inhibition, primary screen, luminescence, primary human CD4 T cells, PD-L1 beads. CellTiter-Glo 96 h. activation, % (test concentration not listed). 29,000 tested, under 10 active. AID 2316, 2010;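 active means replicate mean of 50% or more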;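 further: 0% = median vehicle wells and 100% = positive control; 100 nL library stock added to about 50 µL; numbers are from one replicate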
MITF inh: inhibitors of MITF, primary screen, MITF inhibitor project, cell-based, luminescence; AID 2240, 2010; actives 0.28% (n = 37,000); TRPM1 promoter luciferase, 24 h; inhibition, % (concentration not given with the values);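 active means most replicates at 85% or more, or half of them and the mean; inconclusive means half reach 85% but not the mean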;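 further: human melanocyte line stably carrying TRPM1 promoter luciferase reporter; 0% = vehicle wells and 100% = a positive control; the first replicate is given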
The depositor's hits bear a star; ? = inconclusive; . = not tested or not shown.

Results follow in this order: Hedgehog inh, YB-1 expr inh, PD-1 reverse act, MITF inh
C[C@@H]1CN([C@@H](C)CO)C(=O)c2cc(NC(=O)Cc3cn(C)c4ccccc34)ccc2O[C@H]1CN(C)C(=O)Nc1cccc2ccccc12
  -2.7, -0.399, -0.9, 11.0
COc1ccc(NC(=O)N(C)C[C@@H]2Oc3ccc(NC(=O)CCC(F)(F)F)cc3CC(=O)N([C@H](C)CO)C[C@H]2C)cc1
  2.4, 0.0283, -0.8, -8.2
COc1ccccc1NC(=O)C1=C(C)Nc2nnnn2C1c1ccccn1 (stereo not drawn)
  ., ., -9.1, 25.5
O=c1c(O[C@@H]2O[C@H](CO)[C@H](O)[C@H](O)[C@H]2O)c(-c2cc(O)c(O)c(O)c2)oc2cc(O)cc(O)c12
  -9.2, -0.148, ., .
CC(C(=O)Nc1ccccc1Cl)N(c1ccc(Cl)cc1)S(C)(=O)=O (stereo not drawn)
  ., ., -1.5, 6.9
C[C@H]1CN([C@@H](C)CO)C(=O)c2cc(NS(C)(=O)=O)ccc2O[C@@H]1CN(C)C(=O)Nc1ccc(F)cc1
  -33.1, -0.367, 0.0, -1.3
C[C@H](CO)N1C[C@H](C)[C@H](CN(C)C(=O)Nc2ccc(C(F)(F)F)cc2)Oc2ccc(NC(=O)Nc3ccc(C(F)(F)F)cc3)cc2CC1=O
  18.8, -0.247, ., 16.5
C[C@@H]1CN([C@@H](C)CO)C(=O)c2cc(NS(C)(=O)=O)ccc2O[C@H]1CN(C)Cc1ccc2c(c1)OCO2
  -10.6, 0.0333, 0.5, 1.7
C[C@@H]1CN([C@@H](C)CO)C(=O)c2cc(NC(=O)Nc3ccc(F)cc3)ccc2O[C@@H]1CN(C)Cc1ccc(Oc2ccccc2)cc1
  40.3, -0.0421, -6.2, 51.2
COc1cccc(NC(=S)N=S(C)(=O)c2ccccc2)c1 (stereo not drawn)
  -13.0, -0.385, -0.4, -7.3
COc1cccc2cc(C(=O)Nc3sc4c(c3C(N)=O)CCCCC4)c(=O)oc12
  ., ., 3.8, 0.8
COc1ccc(NC(=O)N(C)C[C@H]2Oc3c(NC(=O)C4CCCCC4)cccc3C(=O)N([C@H](C)CO)C[C@@H]2C)cc1
  -8.4, 0.699, 0.8, -0.2
CC(C)NC(=O)N(C)C[C@@H]1Oc2c(NC(=O)C3CCOCC3)cccc2C(=O)N([C@H](C)CO)C[C@H]1C
  -2.1, -0.0551, 2.6, -4.4
Cc1ccc([N+](=O)[O-])c(OCCCCn2cncn2)c1
  ., ., 1.0, -8.4
C[C@H]1CN([C@@H](C)CO)C(=O)c2cc(NS(=O)(=O)c3cn(C)cn3)ccc2O[C@@H]1CN(C)S(=O)(=O)c1ccccc1
  ., 1.65, 0.6, 3.2
C[C@H](CO)N1C[C@H](C)[C@H](CN(C)Cc2ccccc2)Oc2ccc(NS(=O)(=O)c3ccc(Cl)cc3)cc2CC1=O
  5.5, 0.00392, 0.1, 4.6
COc1ccc(C(=O)CSc2n[nH]c(-c3ccccc3)n2)cc1[N+](=O)[O-]
  ., ., 2.0, -12.6
Cc1ccc(NC(=O)c2ccc3c(c2)CCO3)cc1
  -113.5, -0.00862, 2.0, 56.3
COc1ccc(S(=O)(=O)N(CC(=O)O)c2ccc(F)cc2)cc1
  ., ., 1.1, 5.1
Cc1cc(NC(=O)CCCN2C(=O)c3cccc4cccc(c34)C2=O)n(-c2ccccc2)n1
  ., ., 1.3, -8.2
c1ccc2[nH]c(CSc3ncnc4sc5c(c34)CCCC5)nc2c1
  ., ., -2.1, 42.5
C=C1C(=O)O[C@@H]2/C=C(/C)CC/C=C(/C(=O)O)C[C@@H](OC(=O)/C(C)=C/C)C12 (stereo partly drawn)
  -28.9, -0.243, -0.3, -30.3
C[C@H](CO)N1C[C@H](C)[C@@H](CN(C)C)Oc2ccc(NC(=O)Nc3ccc4c(c3)OCO4)cc2C1=O
  8.6, -0.277, -0.2, -2.7
Cc1ccc(O)c(NC(=O)CN(C)S(=O)(=O)c2ccc(Cl)cc2)c1
  ., ., -0.7, 30.3
C[C@H]1CN([C@@H](C)CO)C(=O)Cc2cc(NC(=O)CCCCCC(=O)Nc3ccccc3N)ccc2O[C@@H]1CN(C)Cc1ccc(Cl)c(Cl)c1
  ., -0.72, 0.3, 12.7
C[C@@H]1CN([C@H](C)CO)C(=O)c2cccc(NC(=O)c3cnccn3)c2O[C@@H]1CN(C)C(=O)Nc1ccc2c(c1)OCO2
  -14.2, -0.23, -1.5, 7.8
Cc1cc(O)c(C)c2c1Oc1c(C)c(O)cc(C)c1C(=O)O2
  14.6, -0.682, 0.8, 37.7
CCn1c(SCC(=O)Nc2ccccc2C(F)(F)F)nnc1-c1cccc([N+](=O)[O-])c1
  ., ., 0.4, -31.8
CSC(=NC#N)/N=c1/nc(SC)n(C)n1C
  5.5, 0.0907, 0.0, -4.2
C[C@H]1CN([C@@H](C)CO)C(=O)Cc2cc(NS(C)(=O)=O)ccc2O[C@H]1CN(C)S(=O)(=O)c1cn(C)cn1
  -35.5, -1.31, 1.5, -3.2
Cc1noc(C)c1NC(=O)Nc1ccc2c(c1)CC(=O)N([C@@H](C)CO)C[C@@H](C)[C@@H](CN(C)C(=O)NC1CCCCC1)O2
  7.4, 1.17, -0.3, -0.4
C[C@@H]1CN([C@H](C)CO)C(=O)Cc2cc(NS(=O)(=O)c3ccc(Cl)cc3)ccc2O[C@@H]1CN(C)S(=O)(=O)c1ccc(F)cc1
  -13.9, -0.369, -0.1, 2.4
C[C@@H]1CN([C@H](C)CO)C(=O)Cc2cc(NC(=O)Nc3ccc(F)cc3)ccc2O[C@H]1CN(C)S(=O)(=O)c1ccc(Cl)cc1
  10.2, -0.853, -1.6, -6.5
COc1cc(OC)c(C(=O)NCCCN(C)C)cc1OC
  ., ., 0.7, -1.0
COc1ccc(S(=O)(=O)Nc2ccc3c(c2)C(=O)N([C@@H](C)CO)C[C@H](C)[C@@H](CN(C)S(C)(=O)=O)O3)cc1
  -28.0, -0.14, 2.0, 5.2
C[C@@H]1CN([C@H](C)CO)C(=O)Cc2cc(NC(=O)NC3CCCCC3)ccc2O[C@H]1CN(C)C(=O)Nc1cccc2ccccc12
  ., 0.101, -0.4, 0.4
C[C@H]1CN([C@@H](C)CO)C(=O)c2cccc(NS(=O)(=O)c3cccs3)c2O[C@@H]1CN(C)Cc1ccccc1
  -1.3, -0.0228, ., -14.9
COc1cc(O[C@@H]2O[C@H](COC3OCC(O)C(O)C3O)[C@@H](O)[C@H](O)[C@H]2O)cc(OC)c1OC (stereo partly drawn)
  -6.7, 0.0442, 1.8, 13.1
C[C@@H]1CN([C@@H](C)CO)C(=O)c2cc(NC(=O)CCCCCC(=O)Nc3ccccc3N)ccc2O[C@@H]1CN(C)Cc1ccncc1
  ., 0.19, 1.3, 0.0
Cc1ccc(C(O)(CO)CO)c(O)c1
  7.0, 0.887, ., .
C[C@@H]1CN([C@@H](C)CO)C(=O)Cc2cc(NC(=O)Nc3ccccc3)ccc2O[C@@H]1CN(C)C(=O)Nc1cccc2ccccc12
  -56.1, 0.577, -2.2, -2.8
C[C@@H]1CN([C@H](C)CO)C(=O)c2cccc(NC(=O)Nc3ccccc3)c2O[C@H]1CN(C)C(=O)Nc1cccc2ccccc12
  3.0, -0.0516, ., 3.2
C[C@@H]1CN([C@@H](C)CO)C(=O)c2cccc(NS(=O)(=O)c3ccc(F)cc3)c2O[C@H]1CN(C)C(=O)Nc1ccccc1
  -4.2, -0.351, 0.6, -0.8
CNC[C@H]1Oc2ccc(NC(=O)Nc3ccc(C(F)(F)F)cc3)cc2C(=O)N([C@H](C)CO)C[C@@H]1C
  -7.6, -0.419, 0.1, 0.8
O=C(CSc1nc(-c2ccccc2)cc(C(F)(F)F)n1)Nc1ccccc1Cl
  ., ., -1.7, 16.7
CNC[C@@H]1Oc2c(NC(=O)C3CCOCC3)cccc2C(=O)N([C@@H](C)CO)C[C@H]1C
  -57.1, -0.431, 2.3, 0.9
Cc1ccc(S(=O)(=O)NC(=O)NN2CC3CCCC3C2)cc1 (stereo not drawn)
  16.9, 2.03, 3.3, -43.9
C[C@@H]1CN([C@@H](C)CO)C(=O)Cc2cc(NS(=O)(=O)c3cccs3)ccc2O[C@@H]1CN(C)Cc1ccccc1
  7.0, 0.272, -1.2, -13.2
C[C@@H]1CN([C@@H](C)CO)C(=O)Cc2cc(NC(=O)Cc3ccccc3)ccc2O[C@@H]1CN(C)S(=O)(=O)c1cn(C)cn1
  -3.7, 0.124, 1.4, -14.4
C[C@@H]1CCCCO[C@H](CN(C)S(=O)(=O)c2cn(C)cn2)[C@@H](C)CN([C@H](C)CO)C(=O)c2cc(NC(=O)NC3CCCCC3)ccc2O1
  6.2, 0.0983, 3.6, -5.7
Cc1noc(C)c1S(=O)(=O)Nc1cccc2c1O[C@@H](CN(C)Cc1ccc3c(c1)OCO3)[C@@H](C)CN([C@H](C)CO)C2=O
  5.8, 0.137, 2.4, -9.4
COc1ccc(S(=O)(=O)N(C)C[C@H]2Oc3c(NC(=O)c4ccc(-c5nccs5)cc4)cccc3C(=O)N([C@@H](C)CO)C[C@@H]2C)cc1
  5.9, -0.145, 1.3, -2.2
CC(C)NC(=O)N(C)C[C@H]1OCCCC[C@@H](C)Oc2ccc(NC(=O)Nc3ccc(C(F)(F)F)cc3)cc2C(=O)N([C@H](C)CO)C[C@@H]1C
  -28.7, 0.255, -3.2, -3.4
COc1ccc(NC(=O)Nc2ccc3c(c2)C(=O)N([C@@H](C)CO)C[C@@H](C)[C@@H](CN(C)C(=O)NC2CCCCC2)O3)cc1
  11.5, 0.341, -1.1, 3.6
COc1ccc(NC(=O)N(C)C[C@@H]2Oc3ccc(NC(=O)Cn4cnnn4)cc3CC(=O)N([C@H](C)CO)C[C@H]2C)cc1
  -16.0, 1.19, ., 1.3
C[C@@H]1CCCCO[C@H](CN(C)Cc2ccc(C(=O)Nc3ccccc3N)cc2)[C@@H](C)CN([C@H](C)CO)C(=O)c2cc(NS(=O)(=O)c3ccc(F)cc3)ccc2O1
  ., -0.477, 0.4, -8.7
C[C@H]1CN([C@@H](C)CO)C(=O)c2cccc(NS(=O)(=O)c3cn(C)cn3)c2O[C@H]1CN(C)Cc1ccc(C(=O)O)cc1
  -35.7, -0.189, ., 0.3
CCCNC(C)C(=O)Nc1ccccc1C (stereo not drawn)
  1.4, 0.00801, ., 9.9
COc1cc2c(cc1O)C(=O)CC1C(C)(C)C(=O)CCC21C (stereo not drawn)
  -16.4, 1.22, -1.7, -9.7
O=C1c2ccccc2C(=O)N1CCCc1nc(-c2cccnc2)no1
  ., ., 1.9, -5.2

(more compounds)
Results follow in this order: Hedgehog inh, YB-1 expr inh, PD-1 reverse act, MITF inh
O=C(CSc1nnnn1-c1ccccc1)Nc1cccc(I)c1
  ., ., 2.2, 9.1
C[C@H](CO)N1C[C@H](C)[C@H](CN(C)CC2CCCCC2)Oc2ccc(NC(=O)Cc3cn(C)c4ccccc34)cc2CC1=O
  -16.0, -0.353, 0.1, 36.9
C[C@H](CO)N1C[C@H](C)[C@H](CN(C)S(=O)(=O)c2ccc(F)cc2)Oc2ccc(NC(=O)Cc3cn(C)c4ccccc34)cc2CC1=O
  14.5, 0.191, -0.8, 15.2
N#Cc1cnc(Sc2nnc(-c3ccncc3)n2-c2ccccc2)nc1N
  -6.6, -0.592, -0.9, 0.8
C[C@H]1CN([C@@H](C)CO)C(=O)c2cccc(NC(=O)Nc3ccccc3)c2O[C@H]1CN(C)CC1CCCCC1
  ?, -0.00924, ., -11.3
C[C@@H]1CN([C@H](C)CO)C(=O)c2cccc(NC(=O)C3CC3)c2O[C@H]1CN(C)S(=O)(=O)c1ccc(Cl)cc1
  6.3, -0.336, ., -2.2
C[C@@H]1CN([C@H](C)CO)C(=O)Cc2cc(NC(=O)CCCCCC(=O)Nc3ccccc3N)ccc2O[C@H]1CN(C)S(=O)(=O)c1ccccc1
  ., -0.197, -0.5, -19.9
COc1ccc(S(=O)(=O)Nc2ccc3c(c2)C(=O)N([C@H](C)CO)C[C@H](C)[C@@H](CN(C)S(=O)(=O)c2ccc(F)cc2)O3)cc1
  -11.9, 0.265, 1.3, -14.2
O=C(O)CCc1ccc(-c2cccs2)n1Cc1ccco1
  ., ., 1.6, -22.3
CCCc1ccc(-c2cc(C(=O)NCc3cnn(C)c3)c3ccccc3n2)cc1
  ., ., -1.7, -62.9
C[C@H]1CN([C@@H](C)CO)C(=O)Cc2cc(N(C)C)ccc2O[C@@H]1CN(C)Cc1ccc(Oc2ccccc2)cc1
  -6.5, -0.466, -1.0, 22.2
C[C@H](CO)N1C[C@H](C)[C@H](CN(C)Cc2ccccc2)Oc2ccc(NS(=O)(=O)c3ccc(F)cc3)cc2C1=O
  37.4, 0.347, -1.7, -3.2

Laid out differently: results already given.
compound,Hedgehog inh,YB-1 expr inh,PD-1 reverse act,MITF inh
O=C(CSc1nnnn1-c1ccccc1)Nc1cccc(I)c1,.,.,2.2,9.1
C[C@H](CO)N1C[C@H](C)[C@H](CN(C)CC2CCCCC2)Oc2ccc(NC(=O)Cc3cn(C)c4ccccc34)cc2CC1=O,-16.0,-0.353,0.1,36.9

An excerpt; count on the stated rates, not on these rows.
